# CDC25B CDK2 inh: human CDC25B-CDK2/CyclinA binding inhibition | HTRF CDC25B-CDK2/CyclinA binding, anti-His/anti-Flag; hits give high values | z-score (no concentration beside the values) | actives 0.72% (n = 94,000);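 further: score is relative to mean and SD of negative controls; strong numbers were not always called active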
# TAR Tat displ: HIV-1 TAR-Tat binding disruption. AID 1259389. actives 0.6% (n = 100,000). HIV-1 TAR RNA, Tat peptide displacement FRET; hits give high values. z-score (no concentration beside the values);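 further: score is relative to mean and SD of negative controls; some compounds called inactive have numbers as strong as hits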
# Starred values were filed as active, the others as inactive; x = not tested or not shown.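 How the source made its calls: active means z-score from 3 up in half or more of its runs; inactive means the rest.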
compound | CDC25B CDK2 inh | TAR Tat displ
O=C(COc1ccc(F)cc1)Nc1noc(-c2cccs2)n1 | -1.39 | 0
O=C(O)Cn1cc(-c2ccncc2)cn1 | -1.51 | 0.27
Clc1cccc(-n2cnnn2)c1 | -1.92 | -0.5
COc1ccc(N2CCN(S(=O)(=O)c3c(C)noc3C)CC2)cc1 | -3.11 | 1.21
Cn1c2ccccc2c2cnn(CC(=O)N3CCN(c4ccccn4)CC3)c(=O)c21 | -0.38 | 0.3
CCOC(=O)c1c(C)[nH]c(C)c1S(=O)(=O)N1CC(CC)Oc2ccc(Cl)cc21 (stereo unspecified) | x | 1.54
CC1(C)CC(=O)C2=C(C1)Nc1nonc1NC2c1cccc(Cl)c1 (stereo unspecified) | -2.06 | 1.06
CC(=O)Nc1ccc(S(=O)(=O)Oc2ccccc2Cl)cc1 | 0.27 | x
O=C(Nc1cc(F)ccc1F)N1CCCN(c2nc3cc(F)ccc3n3cccc23)CC1 | x | -4.16
C=CCn1c(-c2ccco2)n[nH]c1=S | -0.35 | x
CC1=C(C(=O)OC2CCCC2)C(c2cccs2)C2=C(CCCC2=O)N1 (stereo unspecified) | -0.87 | -12.6
CCOCCOC(=O)c1[nH]c2c(c1C)C(=O)CC(c1cccs1)C2 (stereo unspecified) | -1.87 | x
O=C(Cn1cc2c(n1)CCCC2)NCCCN1CCCCC1 | 0.11 | x
Cc1ccc2c(C)nc(Nc3nc(C)cc(=O)[nH]3)nc2c1 | -0.81 | 0.18
CCOc1ccc(C2c3c(-c4ccc(Cl)cc4)n[nH]c(=O)c3Nc3nnnn32)cc1 (stereo unspecified) | -1.2 | 1.59

# The last 2 records of the part above come first, to join the parts:
compound | CDC25B CDK2 inh | TAR Tat displ
Cc1ccc2c(C)nc(Nc3nc(C)cc(=O)[nH]3)nc2c1 | -0.81 | 0.18
CCOc1ccc(C2c3c(-c4ccc(Cl)cc4)n[nH]c(=O)c3Nc3nnnn32)cc1 (stereo unspecified) | -1.2 | 1.59
Cn1c(=O)c2c(-c3ccccc3Br)n(CCc3ccccc3)cc2n(C)c1=O | 1.69 | 1.23
CCOC(=O)N1CCN(c2c(NCCCN(C)c3ccccc3)c(=O)c2=O)CC1 | -1.09 | 0.54
CC(Sc1nc(-c2ccccc2)cc(C(F)(F)F)n1)C(=O)N1CCCC1 (stereo unspecified) | -0.39 | -0.02
Cn1c2ccccc2c2c(C(=O)N3CCN(c4ccccc4F)CC3)cn(C3CCCC3)c(=O)c21 | -1.03 | x
O=C1CC(NCc2ccc3c(c2)OCO3)C(=O)N1c1ccc2c(c1)OCO2 (stereo unspecified) | -0.6 | 1.32
CC(=O)C1C(c2ccc3ncccc3c2)NC(=O)NC1(O)C(F)(F)F (stereo unspecified) | 0.38 | x
O=S(=O)(CCN(C1CC1)S(=O)(=O)c1ccc(Br)cc1)N1CCNCC1 | x | 2.04
O=C1C=C(c2ccccc2)OC2(CCCC2)O1 | 0.93 | x
Cc1ccc(Cn2c(=O)c(C#N)cc3c(=O)n4ccccc4nc32)cc1 | -2.86 | 1.89
CSc1ncc2c(n1)-c1ccccc1N(Cc1ccc(F)cc1)S2(=O)=O | x | -0.48
Cc1cccc(C)c1-n1nnnc1C1(N)CCCC1 | x | 0.9
Cc1cc([N+](=O)[O-])nn1CC(=O)NCc1cccs1 | -0.89 | x
CC(C)Cc1nn2c(=O)cc(CSc3n[nH]c(-c4ccccc4F)n3)nc2s1 | x | -0.57
CCOC(=O)C1=C(C)NC2(O)c3ccccc3C(=O)C12O (stereo unspecified) | -2.37 | x
CC1(C)CC(=O)C(C(C2=C(O)CC(C)(C)CC2=O)c2ccccc2Cl)C(=O)C1 (stereo unspecified) | -0.21 | 0.31

# Remaining list, next part
compound | CDC25B CDK2 inh | TAR Tat displ
CCCCN(C)C(=O)CSc1nnc(-c2ccc3[nH]c(C)c(C)c3c2)o1 | -2.05 | 1.31
Cc1cc([N+](=O)[O-])nn1CC(=O)N1CCCc2ccccc21 | -1.16 | 0.66
O=C(O)COc1ccc2oc3c(c2c1)CCCC3 | 3.36 | -0.95
COCCCN(Cc1ccco1)C(=O)c1nn(C)c2c1COc1ccccc1-2 | -0.42 | 0.84
CC1CCCCN1S(=O)(=O)c1cnc[nH]1 (stereo unspecified) | 0.35 | 0.29
CC(=O)c1ccc(Cl)c(N=Cc2cc(Br)cc(Br)c2O)c1 | -1.12 | x
CCN(C(=O)CCS(=O)(=O)c1ccc2c(c1)NC(=O)C(C)S2)c1ccccc1 (stereo unspecified) | x | 2.24
CC1=C(c2ccc(F)cc2)S(=O)(=O)N=C1Nc1cc(C)ccn1 | x | -0.13
COc1cccc(C(=O)OCc2cc(=O)n3c(-c4ccccc4)csc3n2)c1 | x | -1.18
CNC(=O)NC(=O)CSc1nnc(-c2cccs2)n1-c1ccc(Cl)cc1 | -1.74 | x
CCCc1nccn1S(=O)(=O)c1cc(OC)c(Cl)cc1OC | -1.41 | -0.51
CCOc1cccc2c1Oc1nc(-c3ccc(Br)cc3)[nH]c(=O)c1C2 | -0.07 | 1.68
Cc1[nH]c2ccccc2c1C1(O)C(=O)Nc2ccc(F)cc21 (stereo unspecified) | x | 1.38
O=C(Cn1cnc2c(nnn2Cc2ccccc2F)c1=O)OCc1ccccc1 | 0.35 | 1.48
c1ccc(-c2nc(-c3ccc4c(c3)ncn4C3CCCC3)no2)cc1 | x | 0.48

# Additional results:
compound | CDC25B CDK2 inh | TAR Tat displ
CCN(CC)CCCCN1c2ccccc2Oc2ccc(Cl)cc21 | x | 2.44
Cn1c(=O)c(/C=C/c2ccccc2F)nc2ccccc21 | -0.1 | -7.48
Cc1nc(S(=O)(=O)Nc2ccc(S(=O)(=O)N3CCOCC3)cc2)cn1C | -1.65 | x
Cc1ccccc1-n1cc(-c2ccccc2)c2c(N3CCN(C)CC3)ncnc21 | -0.11 | 0.07
CCC1CCCCN1Cc1nc2c(c(=O)n(C)c(=O)n2C)n1CCOC (stereo unspecified) | -1.73 | -0.22
Cc1ncc(CO)c2c1Oc1nc(-c3ccc(F)cc3)nc(SCC(=O)N3CCOCC3)c1C2 | x | 0.6
Cc1ccn2cc(-c3ccc(NS(=O)(=O)c4ccccc4)cc3)nc2n1 | x | 1.04
O=C(O)CCCNc1nc(Cl)nc(N2CCCCC2)n1 | 0 | 1.24
Cc1ccc(C)c(CSc2nc3nc(C)cc(C)n3n2)c1 | -0.78 | x
COc1ccc(OC)c(C2Nc3ccc4ccccc4c3C3=C2C(=O)CC(C)(C)C3)c1 (stereo unspecified) | 0.67 | -0.42
O=C(NCc1cccn1Cc1ccccc1)NC1CCCC1 | x | -1.04
CC(=O)N1CCc2cc(Br)cc(S(=O)(=O)CCC(=O)N3CCCC(C)C3)c21 (stereo unspecified) | 0.25 | x
Cc1nn2c3c(cnc2c1-c1ccccc1)C(=O)CC(C)C3 (stereo unspecified) | 0.34 | 0.18
COc1cccc(-c2nc(SCc3ccccc3)n3[nH]c(=O)cc3n2)c1 | x | 0.21
CCOC(=O)c1c(NC(=O)CCC(=O)O)sc2c1CCCC2=O | -1.2 | 1.11

# 4 structures from above, ordered by SMILES length, high to low:
compound | CDC25B CDK2 inh | TAR Tat displ
Cc1ncc(CO)c2c1Oc1nc(-c3ccc(F)cc3)nc(SCC(=O)N3CCOCC3)c1C2 | x | 0.6
CC(=O)N1CCc2cc(Br)cc(S(=O)(=O)CCC(=O)N3CCCC(C)C3)c21 (stereo unspecified) | 0.25 | x
Cc1nc(S(=O)(=O)Nc2ccc(S(=O)(=O)N3CCOCC3)cc2)cn1C | -1.65 | x
O=C(NCc1cccn1Cc1ccccc1)NC1CCCC1 | x | -1.04

# Further records follow:
Compound	CDC25B CDK2 inh	TAR Tat displ
CCN(CC)C(=O)C1Sc2nnc(C)n2NC1c1ccccc1 (stereo unspecified)	-1.16	2.5
CCc1ccc(S(=O)(=O)n2c(C)nc3ccccc32)cc1	0.96	0.69
Cc1ccc(-c2c[nH]c(=S)o2)cc1C	-1.04	-0.31
COCCOC(=O)c1c(C)oc2ccc(OC(=O)c3ccc(OC)c(OC)c3)cc12	-0.86	-0.43
N#C/C(N)=C(/C#N)NCc1ccccc1Sc1ccc(Cl)cc1	-3.17	x
CC(C(=O)O)[C@H]1CCC2C3CC=C4C[C@@H](O)CC[C@]4(C)C3CC[C@@]21C (stereo partly specified)	x	-0.88
CC(C)c1cc(-c2nc(-c3ccncc3)no2)n[nH]1	x	-0.94
COc1ccc(CSc2nc3ccncc3n2Cc2ccc(OC)cc2)cc1	-0.7	1.22
O=C(Nc1c2c(nn1-c1ccc(F)cc1)CSC2)c1ccc(S(=O)(=O)N2CCCC2)cc1	-4.14	x
O=C(c1cc(-c2cccs2)on1)N1CCCCC1	-1.29	x
O=C(NCc1ccc(Cl)cc1)c1cnc2sc(N3CCOCC3)nn2c1=O	x	2.39
CSc1nnc(-c2sc3nc(C)cc(C)c3c2N)n1Cc1ccccc1	-2.21	x

# (cont.)
Compound	CDC25B CDK2 inh	TAR Tat displ
COC(=O)c1cnn(-c2cccc(F)c2)c1-n1cccc1	-0.38	-0.96
O=C(c1cccs1)N1CCc2ccccc2C1	0.19	-0.07
CCCCSc1nnc(-c2nonc2NC(C)=O)n1C	-2.02	0.74
Cc1noc2ncn(CC(=O)Nc3nccs3)c(=O)c12	x	2.16
O=C(NC1COc2ccccc2C1)N1CCN(Cc2ccc3c(c2)OCO3)CC1 (stereo unspecified)	x	-0.17
C=Cc1ccc(CN2C(=O)N(c3ccccc3C)S(=O)(=O)c3ccccc32)cc1	x	1.67
COC(=O)c1c(NC(=O)c2cncc(Br)c2)sc2c1C(C(=O)OC)CC2 (stereo unspecified)	-1.74	0.39
O=C1Nc2ccc(S(=O)(=O)Nc3ccc4oc(=O)sc4c3)c3cccc1c23	-2.62	0.92
COc1cccc(C(=O)N/N=C(\C)c2ccccc2O)c1	0.64	x
Cn1c(-c2ccc(F)cc2)cnc1NCc1ccc(Br)cc1	0.2	0.16
Cc1c(-c2nc(-c3ccc(Cl)cc3)no2)nnn1-c1cccc(F)c1	x	-0.32
O=C1CCCCC1Sc1nc2ccccc2s1 (stereo unspecified)	1.33	1.66

# Following part
Compound	CDC25B CDK2 inh	TAR Tat displ
N#Cc1nc(/C=C/c2ccc(F)cc2)oc1NCCc1ccccc1	-1.83	1.73
O=C(c1ccccc1)N(Cc1cccc(F)c1)C1CCS(=O)(=O)C1 (stereo unspecified)	-2.23	0.05
CCCCn1c(CN2CCN(C)CC2)nc2c1c(=O)n(C)c(=O)n2C	-0.8	x
Cc1cc(C)cc(N2CC(O)=C(c3nc4ccccc4n3C)C2=N)c1	-0.72	0.93
Cc1ccc(CNC(=O)c2cc(-c3cccnc3)nc3ccc(Br)cc23)o1	x	0.12
CC1Cc2cc(S(=O)(=O)NCC3CCC(C(=O)N4CCCCC4)CC3)ccc2N1C(=O)C1CC1 (stereo unspecified)	x	1.77
CC(C(=O)NCc1ccco1)N1Cc2ccccc2C1=O (stereo unspecified)	x	0.05
CSc1ccccc1C(=O)Nc1nnc2n1CCCS2	x	1.19
CCC(O)c1nc2ccccc2n1CCOc1ccc(C)cc1C (stereo unspecified)	1.9	0.34
Cc1nc2sc3c(SCC(=O)Nc4ccccn4)ncnc3c2c2c1COC(C)(C)C2	-3.9	-0.42
CCS(=O)(=O)c1nc(S(=O)(=O)c2ccc(C)cc2)c(NCc2ccc(F)cc2)s1	-2.36	1.31
COc1cccc(-n2ccn3c(=O)[nH]nc3c2=O)c1	-1.2	0.39

# Full records from above:
# `Cc1ccc(CNC(=O)c2cc(-c3cccnc3)nc3ccc(Br)cc23)o1` is listed as CDC25B CDK2 inh: x; TAR Tat displ: 0.12
# `CCCCn1c(CN2CCN(C)CC2)nc2c1c(=O)n(C)c(=O)n2C` is listed as CDC25B CDK2 inh: -0.8; TAR Tat displ: x

# (more compounds)
Compound	CDC25B CDK2 inh	TAR Tat displ
O=C1CC(c2nc3ccccc3n2Cc2ccccc2)CN1c1cccc(Cl)c1 (stereo unspecified)	-0.56	2.12
O=C(NNC(=S)Nc1ccc(S(=O)(=O)N2CCCCC2)cc1)c1ccncc1	-0.83	x
c1coc(-c2nn3c(-c4ccncc4)nnc3s2)c1	-0.91	1.78
Cc1nc(NC(=O)c2cc(=O)c3ccccc3o2)sc1C(=O)OCC(C)C	-0.45	0.95
COc1ccc(N2C(=O)c3cccnc3C2Nc2ccc(F)cc2)cc1 (stereo unspecified)	x	-0.51
CCN1CCCC1CNC(=O)c1ccc(NC(=O)C2=CSCCO2)cc1 (stereo unspecified)	x	3.05
Cn1cnc(S(=O)(=O)N2CC(OCc3ccc(Cl)cc3)C2)c1	x	1.03
CS(=O)(=NS(=O)(=O)c1cccc2nsnc12)c1ccc(Cl)cc1 (stereo unspecified)	-0.45	x
CSc1nnc(Nc2ccccc2)n1-c1ccccc1	-2.51	1.35
Cc1ccc(-c2cc(C(F)(F)F)n3ncc(C(=O)OCCCN(C)C)c3n2)cc1	-1.71	0.79
Cc1oc(-c2ccc(Cl)cc2)cc1C(=O)NCc1ccccc1	-1.92	x
CC(C)(CC(=O)O)CC(=O)Nc1sc2c(c1C(N)=O)CCCC2	-0.32	x

# Next compounds
Compound	CDC25B CDK2 inh	TAR Tat displ
CC(=O)N1CSCC1C(=O)NNS(=O)(=O)c1cccc(C(F)(F)F)c1 (stereo unspecified)	-1.85	x
COc1ccc(C2C(C#N)=C3N=C(N)c4ccccc4N3C3=C2C(=O)CC(C)(C)C3)c(OC)c1 (stereo unspecified)	-2.37	-5.22
CCNc1cc(N(C)C)nc(Oc2ccc(OCCOc3ccccc3C)nn2)n1	-1.37	-2.19
COCCNC(=O)Cn1nc(C(F)(F)F)c(Br)c1C	x	0.81
COc1ccc(-c2c(C(=O)O)sc3c2cnc2c(F)cc(F)cc23)cc1	-1.03	-0.14
COC(=O)Cn1cnc2c(nnn2-c2cccc(Cl)c2)c1=O	-0.11	1.47
CCCCN(CC)c1ccc2nnc(CCC(=O)O)n2n1	-1.5	-0.24
CCOc1ccc(OCC)c(NS(=O)(=O)c2ccc3[nH]c(=O)c(=O)[nH]c3c2)c1	-0.95	0.02

# Assay outcomes: PubChem, Center for Chemical Genomics, University of Michigan
